From PubChem
EPAC1 ag val: Validation qHTS for agonist of cAMP-regulated guanine nucleotide exchange factor 3 (EPAC1). EPAC1 Rap1b BODIPY-GDP exchange, fluorescence. Potency, µM, for inactives: max response, positive = active, actives largely listed as activators. Rap guanine nucleotide exchange factor 3 (Homo sapiens), O95398. hit rate 1% among 16,000; active means well fitted activation curve with a large enough effect; inconclusive means small, poorly fitted or top-dose-only effect; inactive means no such curve, though single readings can be large or run the other way;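 further: nearly all actives have a fitted effect of over 70% in size; series mostly up to about 76 or 150 µM; scaled to a cAMP control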
Target sequence (O95398 whole entry, looked up): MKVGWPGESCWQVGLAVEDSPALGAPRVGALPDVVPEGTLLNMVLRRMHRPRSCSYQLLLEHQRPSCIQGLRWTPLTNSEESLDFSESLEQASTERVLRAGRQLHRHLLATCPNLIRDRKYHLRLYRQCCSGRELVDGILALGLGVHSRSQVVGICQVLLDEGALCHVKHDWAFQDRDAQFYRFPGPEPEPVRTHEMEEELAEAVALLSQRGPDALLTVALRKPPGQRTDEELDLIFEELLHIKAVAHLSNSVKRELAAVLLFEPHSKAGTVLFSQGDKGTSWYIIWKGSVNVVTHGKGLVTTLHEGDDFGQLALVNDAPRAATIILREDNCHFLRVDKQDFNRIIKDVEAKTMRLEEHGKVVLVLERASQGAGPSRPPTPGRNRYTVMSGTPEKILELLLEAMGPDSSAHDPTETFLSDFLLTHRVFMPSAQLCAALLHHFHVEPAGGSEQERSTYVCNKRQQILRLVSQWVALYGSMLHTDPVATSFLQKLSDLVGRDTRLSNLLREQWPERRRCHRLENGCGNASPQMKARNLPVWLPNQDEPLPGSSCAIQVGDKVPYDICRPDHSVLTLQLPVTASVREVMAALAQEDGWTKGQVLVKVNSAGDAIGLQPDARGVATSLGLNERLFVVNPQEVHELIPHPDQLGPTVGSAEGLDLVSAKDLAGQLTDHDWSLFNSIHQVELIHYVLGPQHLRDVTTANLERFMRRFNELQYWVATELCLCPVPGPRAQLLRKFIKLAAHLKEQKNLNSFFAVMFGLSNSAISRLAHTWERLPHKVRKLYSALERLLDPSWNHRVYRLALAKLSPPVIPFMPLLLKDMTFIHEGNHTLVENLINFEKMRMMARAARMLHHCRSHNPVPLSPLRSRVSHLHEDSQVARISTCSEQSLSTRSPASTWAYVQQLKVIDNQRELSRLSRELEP
* hit, by the source's call; ? = inconclusive; & = joins results of further samples; [ ] = remark or other dose. On the % scale 0 is the no-effect control and ±100 the full control effect; potency means the concentration at half of the fitted maximal effect.

Preview, four compounds:
SMILES | EPAC1 ag val
COc1ccc(-n2c(=O)c(-c3cccs3)nc3cnc(Nc4cccc(OC)c4)nc32)cc1 | 100µM*
CC(C)=CCCC(C)CCO (stereo not given) | 4.4%
CC(=O)OC1CC2C(C)(C)CCC(=O)[C@@]2(C)C2CC[C@@]3(C)C(c4ccoc4)OC(=O)C4OC43[C@]12C (stereo not given in full) | 18.3%
O=C(Nc1ccccc1)c1cc([N+](=O)[O-])ccc1Cl | -8.1%&-8.6%&-8.0%&-5.1%

The listing (from the top)
SMILES | EPAC1 ag val
COc1ccc(-n2c(=O)c(-c3cccs3)nc3cnc(Nc4cccc(OC)c4)nc32)cc1 | 100µM*
CC(C)=CCCC(C)CCO (stereo not given) | 4.4%
CC(=O)OC1CC2C(C)(C)CCC(=O)[C@@]2(C)C2CC[C@@]3(C)C(c4ccoc4)OC(=O)C4OC43[C@]12C (stereo not given in full) | 18.3%
O=C(Nc1ccccc1)c1cc([N+](=O)[O-])ccc1Cl | -8.1%&-8.6%&-8.0%&-5.1%
OCCN1CCN(CCCN2c3ccccc3C=Cc3ccccc32)CC1 | 4.4%&5.8%&-16.6%
CC(=O)Nc1ccc(-c2nc3ccc(Cl)cc3[nH]2)cc1 | 3.1%
Cc1ccc(CNc2ncnc3sc(C(=O)N4CCC(N5CCCC(O)C5)CC4)c(C)c23)o1 (stereo not given) | 5.6%
CNC(=O)[C@H]1O[C@@H](n2cnc3c(NCc4ccc(N)cc4)ncnc32)[C@H](O)[C@@H]1O | 5.4%&-12.9%
CCOC(=O)c1cc(-c2ccccc2)nc2ccc(C)cc12 | 4.8%
O=c1c(-c2cccc(F)c2)nc2cncnc2n1Cc1ccc(F)cc1 | 28.1%
CCCCCCCCCCCCC/C=C/[C@@H](O)[C@H](CO)NC(=O)CCCCCCC | -30.5%[inhibitor]
CS(=O)(=O)N1CCC2(CC1)CN(Cc1nccs1)C2 | 1.8%
c1ccc2c(N3CCOCC3)nc(-c3ccoc3)nc2c1 | -3.2%
O=C(O)C1=CCCNC1 | -10.0%&14.2%&-9.1%&-28.3%
CC1(O)/C=C\C=C(\CO)C2CC(C)(C)C2(O)CC1 (stereo not given) | 4.1%
O=C(NC[C@@H]1CCCN2CCCC[C@H]12)c1cnn(-c2nccc(-c3ccco3)n2)c1C1CC1 | -6.3%
COc1c2ccoc2c(OC)c2oc(=O)ccc12 | -37.2%[inhibitor]
CC(=O)OC1CC[C@@]2(C)C3=CC(=O)[C@]4(C)C(CC5OC6(OCC(C)CC6Br)C(C)C54)C3CC[C@H]2C1 (stereo not given in full) | ?
Cc1ncc2c(c1CNC(=O)c1ccsc1)CCN(C(=O)c1c(F)cccc1Cl)C2 | -10.9%
[N-]=[N+]=NCC1OC(n2cnc3c(=O)[nH]c(N)nc32)C(O)C1O (stereo not given) | 16.8%
CCCCCC(O)/C=C/C=O (stereo not given) | 2.5%
Cn1cc[nH]c1=S | 18.6%&-14.9%
CC(S)C(=O)NCC(=O)O (stereo not given) | -25.9%
C=C1C(=O)O[C@H]2[C@H]1CC/C(C)=C\CC[C@@]1(C)O[C@@H]21 | -13.5%
CCOC(=O)N1CCN(c2nc(CN3CCCCC3CCO)nc3c(C)cccc23)CC1 (stereo not given) | -9.9%
C#CCN(Cc1nc(N2CCOCC2)c2ccc(Cl)cc2n1)Cc1ccco1 | 4.9%
COc1ccc(Oc2ncc3ncc(=O)n(C)c3n2)cc1 | -20.4%
COc1cc(=O)n2c(c1C(=O)NC(C)c1ccco1)CCN(C(=O)c1ccc3c(c1)OCCO3)CC2 (stereo not given) | 2.8%
CC(=O)c1ccc(-c2cc(F)cc3c2OC(CNC(=O)Cc2cn4ccsc4n2)C3)s1 (stereo not given) | 4.5%
CNC(=O)C[C@@H](N)C(=O)N[C@@H](C(=O)N[C@@H]1C(=O)N2[C@@H]1SC(C)(C)[C@@H]2C(=O)O)c1ccc(O)cc1 | -6.3%

Sorted by molecular weight (highest first): some entries from above
SMILES | EPAC1 ag val
CC(=O)OC1CC[C@@]2(C)C3=CC(=O)[C@]4(C)C(CC5OC6(OCC(C)CC6Br)C(C)C54)C3CC[C@H]2C1 (stereo not given in full) | ?
O=C(NC[C@@H]1CCCN2CCCC[C@H]12)c1cnn(-c2nccc(-c3ccco3)n2)c1C1CC1 | -6.3%
CC(S)C(=O)NCC(=O)O (stereo not given) | -25.9%

Next section
SMILES | EPAC1 ag val
O=C(c1cc(C(F)(F)F)cc(C(F)(F)F)c1)N1CCC2(CCCN(Cc3ccncc3)C2)CC1 | -115.1%[inhibitor]
Cn1cc(CN2CCOc3ccc(C(O)C4CCCCC4)cc3C2)cn1 (stereo not given) | 7.2%
COCCn1c(=O)c(-c2ccc(Cl)cc2)nc2cnc(OCc3ccccc3)nc21 | -5.8%
Nc1ccc(CCNc2ncnc3c2ncn3C2OC(CO)C(O)C2O)cc1 (stereo not given) | 2.0%&-9.1%
O=C(/C=C/c1cccc(F)c1)NC1CC1 | -5.9%
Cc1cc(C(=O)NCC2CCC3(CCN(Cc4cccc(F)c4F)CC3)O2)n(C)n1 (stereo not given) | -15.2%
CC1=CC(=O)[C@@H]2C[C@H]1C2(C)C | -17.2%
COc1cc(=O)n2c(c1C(=O)N(C)Cc1cscn1)CCN(Cc1c(C)[nH]c3ccccc13)CC2 | -12.8%
Cc1noc(C)c1C(=O)N1CCC2(CCN(Cc3ccncc3)CC2)CC1 | -41.3%[inhibitor]
COc1ccc2c(c1)CCc1cnc(-n3ncc(C(=O)NCCCN4CCOCC4)c3C)nc1-2 | 2.3%
CCN(CC)CCOc1ccc(/C(=C(\Cl)c2ccccc2)c2ccccc2)cc1 | 25.8%&18.3%
O=C(O)C[C@H]1c2ccccc2S(=O)(=O)N1c1ccccc1 | 0.7%
Cc1ccc(-c2nn(CC(C)(C)C)c3ncnc(N)c23)cc1 | -3.3%
Cc1noc(C)c1-c1ccc2ncnc(NCCN3CCOCC3)c2c1 | -34.6%[inhibitor]
CCCN(CCc1ccccc1)C1CCc2c(O)cccc2C1 (stereo not given) | 1.1%&-6.7%
Cc1cccc(/C=C/c2cccs2)n1 | -0.8%
c1ccc(-c2ccc(N3CC[C@@]4(CCCNC4)C3)cc2)cc1 | -69.1%[inhibitor]
Cc1ccccc1C(=O)N1CC/C(=N\OS(=O)(=O)O)c2ccc(Cl)cc21 | 5.6%
Nc1ccc(-c2nc3ccc(-c4nc5ccc(N)cc5[nH]4)cc3[nH]2)cc1 | -7.4%
O=c1c(-c2ccc(Cl)cc2)nc2cncnc2n1Cc1ccc(F)cc1 | -33.4%[inhibitor]
COc1ccccc1-c1ccc2ncnc(N3CCNCC3)c2c1 | 11.5%
CS(=O)(=O)Nc1cccc(-c2nc(NCc3cccnc3)c3ccccc3n2)c1 | ?
CC(O)Cn1cnc2c1c(=O)n(C)c(=O)n2C (stereo not given) | -25.8%
Cc1cc(-n2c(=O)[nH]c(=O)n(C)c2=O)ccc1Oc1ccc(S(=O)(=O)C(F)(F)F)cc1 | -30.6%[inhibitor]
COCCn1c(=O)c(-c2cccs2)nc2cnc(OCc3ccccc3)nc21 | -34.4%[inhibitor]
CC(=O)c1ccc(F)c(-c2cc(C)cc3c2OC(CNC(=O)C2CCCCN2C)C3)c1 (stereo not given) | -6.1%
COCC(=O)O[C@]1(CCN(C)CCCc2nc3ccccc3[nH]2)CCc2cc(F)ccc2[C@@H]1C(C)C | 4.4%&-19.5%
NCCCCNCCCN | 10.7%&5.9%&-21.5%
COc1ccc(-n2c(=O)c(-c3cccc(Cl)c3)nc3cncnc32)cc1 | ?
C[C@H](NCCc1ccc(O)cc1)[C@H](O)c1ccc(O)cc1 | 0.9%

CC1=C(/C=C/C(C)=C/C=C/C(C)=C/C=C/C=C(C)/C=C/C=C(C)/C=C/C2=C(C)C[C@@H](O)CC2(C)C)C(C)(C)C[C@H](O)C1
- EPAC1 ag val: -24.1%

O=c1c(-c2cccs2)nc2cnc(Oc3cccc(Cl)c3)nc2n1C[C@H]1CCCO1
- EPAC1 ag val: -38.5%[inhibitor]

C[C@](O)(C(=O)Nc1ccc(S(=O)(=O)c2ccccc2)cc1)C(F)(F)F
- EPAC1 ag val: 4.6%

CC1=C(/C=C/C(C)=C/C=C/C(C)=C\C(=O)O)C(C)(C)CCC1
- EPAC1 ag val: ?

O=C(c1ccco1)N1CCC2(CCCN(Cc3ccncc3)C2)CC1
- EPAC1 ag val: -38.3%[inhibitor]

COc1cc(O)cc(/C=C/c2ccccc2)c1
- EPAC1 ag val: ?

OC(c1cccnc1)c1ccc2c(c1)CN(Cc1cccc3c1OCO3)CCO2 (stereo not given)
- EPAC1 ag val: 7.8%

C[C@H](CN1CCCC1)C(=O)c1ccc(C(F)(F)F)cc1
- EPAC1 ag val: 13.2%

COc1ccccc1-n1cc(CN2CCOc3ccc(CN4C[C@@H](C)O[C@@H](C)C4)cc3C2)cn1
- EPAC1 ag val: 4.9%

Brc1ccc2c(ccc[n+]2CCc2ccccc2)c1
- EPAC1 ag val: 0.7%

OCCNCCCOc1cccc(Cl)c1Cl
- EPAC1 ag val: 4.5%

CCc1cn([C@H]2C[C@H](O)[C@@H](CO)O2)c(=O)[nH]c1=O
- EPAC1 ag val: 6.0%

COc1ccccc1-c1ccc2ncnc(NC3CC3)c2c1
- EPAC1 ag val: -9.9%

COc1ccc([C@H]2c3cc(OC)c(OC)cc3C[C@@H](C)[C@@H]2C)cc1OC
- EPAC1 ag val: -19.2%

O=C(c1csnn1)N1CCC[C@@]2(CCN(C(c3ccccc3)c3ccccc3)C2)C1
- EPAC1 ag val: -40.6%[inhibitor]

COc1ccc(-c2cn(Cc3ccc(C)cc3)nn2)cc1
- EPAC1 ag val: 7.9%

CCOC(=O)[C@H](CCc1ccccc1)N[C@@H](C)C(=O)N1CCC[C@H]1C(=O)O
- EPAC1 ag val: -25.3%

CC1(C)OC2C(CO)OC(n3cnc4c(=O)[nH]cnc43)C2O1 (stereo not given)
- EPAC1 ag val: -24.8%

c1ccc2c(NC3CC3)nc(-c3ccoc3)nc2c1
- EPAC1 ag val: -30.4%[inhibitor]

O=Cc1cc2ccccc2cc1O
- EPAC1 ag val: -15.3%

Cc1cnc(SCc2ccccn2)nc1C1CCCN(C(=O)c2noc3c2CCCC3)C1 (stereo not given)
- EPAC1 ag val: -10.8%

CCNc1ncc2nc(C)c(=O)n(CCOC)c2n1
- EPAC1 ag val: -38.8%[inhibitor]

c1cncc(-c2ccc3ncnc(N4CCNCC4)c3c2)c1
- EPAC1 ag val: 22.7%

NCCC(=O)N[C@@H](Cc1cnc[nH]1)C(=O)O
- EPAC1 ag val: -3.6%

Cc1ccccc1N=C1Nc2ccc(Cl)cc2N[C@]12C[C@H]1CCCC(=O)N3CC[C@@H](C2)[C@@H]13
- EPAC1 ag val: 25.0%

CN(Cc1ccon1)C(=O)c1cnn(-c2nccc(-c3ccc4c(c3)OCO4)n2)c1C1CC1
- EPAC1 ag val: 5.5%

CCCCCC1C(=O)CCC1CC(=O)O (stereo not given)
- EPAC1 ag val: -18.4%

Nc1ccc2c3c(cccc13)C(=O)NC2=O
- EPAC1 ag val: 7.08µM*

OCC1OC(Oc2cccc3cccnc23)C(O)C(O)C1O (stereo not given)
- EPAC1 ag val: 1.1%

COc1cccc(C2(CC(=O)N3CCCCC3CO)CC(=O)N(C)C2=O)c1 (stereo not given)
- EPAC1 ag val: -5.8%

Seven entries from above, with the structure last:
EPAC1 ag val	Compound
5.6%	Cc1ccc(CNc2ncnc3sc(C(=O)N4CCC(N5CCCC(O)C5)CC4)c(C)c23)o1 (stereo not given)
5.4%&-12.9%	CNC(=O)[C@H]1O[C@@H](n2cnc3c(NCc4ccc(N)cc4)ncnc32)[C@H](O)[C@@H]1O
4.8%	CCOC(=O)c1cc(-c2ccccc2)nc2ccc(C)cc12
28.1%	O=c1c(-c2cccc(F)c2)nc2cncnc2n1Cc1ccc(F)cc1
-30.5%[inhibitor]	CCCCCCCCCCCCC/C=C/[C@@H](O)[C@H](CO)NC(=O)CCCCCCC
1.8%	CS(=O)(=O)N1CCC2(CC1)CN(Cc1nccs1)C2
-3.2%	c1ccc2c(N3CCOCC3)nc(-c3ccoc3)nc2c1

Following part:
COc1ccc(-n2c(=O)c(-c3cccs3)nc3cnc(N4CCOCC4)nc32)cc1
- EPAC1 ag val: ?

COc1cc(CN2c3ccc(Br)cc3C(=O)CS2(=O)=O)cc(OC)c1
- EPAC1 ag val: 1.3%

Cc1c2oc3c(C)ccc(C(=O)N[C@@H]4C(=O)N[C@H](C(C)C)C(=O)N5CCC[C@H]5C(=O)N(C)CC(=O)N(C)[C@@H](C(C)C)C(=O)O[C@@H]4C)c3nc-2c(C(=O)N[C@@H]2C(=O)N[C@H](C(C)C)C(=O)N3CCC[C@H]3C(=O)N(C)CC(=O)N(C)[C@@H](C(C)C)C(=O)O[C@@H]2C)c(N)c1=O
- EPAC1 ag val: -24.4%

CSc1nccc(-c2cc(Cl)c3c(c2)CC(CNC(=O)c2ccc(C)nc2)O3)n1 (stereo not given)
- EPAC1 ag val: -15.1%

Oc1cc2c(cc1O)C(c1ccccc1)CNCC2 (stereo not given)
- EPAC1 ag val: -7.7%&-10.2%&19.1%

Cc1cc(OI)c(C(C)C)cc1-c1cc(C(C)C)c(OI)cc1C
- EPAC1 ag val: -9.8%

O=C(c1cc(C(F)(F)F)cc(C(F)(F)F)c1)N1CCC2(CC1)CN(Cc1ccccc1)C2
- EPAC1 ag val: -89.4%[inhibitor]

The list is partial (hit frequency here may not be typical).
